GALR2 agonist: activates the human galanin receptor 2; O43603; GALR2-expressing cells, agonist activation read-out; activation, %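 (tested at 5 µM)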; 140,000 tested, 0.48% active; AID 803;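 active = above mean plus 3 SD of all compounds, about 5% in these data, not always enough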;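 note: 0% = vehicle buffer wells and 100% = reference agonist at full effect; tested in CHO reporter cells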
Target sequence (O43603 whole entry, looked up): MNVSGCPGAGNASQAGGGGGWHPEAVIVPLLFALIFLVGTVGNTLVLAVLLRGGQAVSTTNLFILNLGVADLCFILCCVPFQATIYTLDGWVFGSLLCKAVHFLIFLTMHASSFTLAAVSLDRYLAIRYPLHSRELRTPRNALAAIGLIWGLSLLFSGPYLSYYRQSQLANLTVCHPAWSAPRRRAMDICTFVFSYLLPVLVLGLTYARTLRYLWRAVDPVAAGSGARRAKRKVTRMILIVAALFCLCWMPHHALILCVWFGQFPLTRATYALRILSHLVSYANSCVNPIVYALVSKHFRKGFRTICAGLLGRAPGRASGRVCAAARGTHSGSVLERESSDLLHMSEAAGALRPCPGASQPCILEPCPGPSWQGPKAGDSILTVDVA
PKD1 kinase inh: inhibitors of human PKD1 kinase. 200,000 tested, 0.056% active. PKD1 kinase fluorescence polarization assay. inhibition, %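 (about 10 µM by stock and volumes)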. AID 797. Q15139;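 active = inhibition of 50% or more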;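 note: controls were vehicle for no effect and a reference inhibitor for full effect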
Insulin prom inh: TRM-6 insulin promoter activity inhibition. 130,000 tested, 0.9% active. TRM-6 cells (human fetal islet line), insulin promoter-eGFP reporter, imaging; reporter expression induced with tamoxifen. inhibition, % at 2 µM;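 active = inhibition above the mean plus 3 SD, with well images judged a real hit on visual review, cut at about 60% in these data, passing the limit was not always enough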
RGS16-Gao: modulates binding between human RGS16 and Galphao; AID 1441; bead-based flow cytometry RGS16-Galphao binding, fluorescence; actives lie on both sides; binding response (% of control), % at 10 µM; 220,000 tested, 0.38% active; O15492+P09471;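 active = below 25% or above 175%, edge rows of some plates excepted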;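 note: Galphao activated by GDP with aluminum fluoride before binding; 100% = wells without compound and 0% = beads without RGS; some results beyond the cut were filed as inactive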
Target sequence (O15492 whole entry, looked up): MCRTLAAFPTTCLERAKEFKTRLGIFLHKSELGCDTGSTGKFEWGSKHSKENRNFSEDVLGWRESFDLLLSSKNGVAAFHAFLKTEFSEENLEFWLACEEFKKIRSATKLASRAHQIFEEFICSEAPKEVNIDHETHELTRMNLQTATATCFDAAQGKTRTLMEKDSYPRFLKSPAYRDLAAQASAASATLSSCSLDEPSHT
Target sequence (P09471 whole entry, looked up): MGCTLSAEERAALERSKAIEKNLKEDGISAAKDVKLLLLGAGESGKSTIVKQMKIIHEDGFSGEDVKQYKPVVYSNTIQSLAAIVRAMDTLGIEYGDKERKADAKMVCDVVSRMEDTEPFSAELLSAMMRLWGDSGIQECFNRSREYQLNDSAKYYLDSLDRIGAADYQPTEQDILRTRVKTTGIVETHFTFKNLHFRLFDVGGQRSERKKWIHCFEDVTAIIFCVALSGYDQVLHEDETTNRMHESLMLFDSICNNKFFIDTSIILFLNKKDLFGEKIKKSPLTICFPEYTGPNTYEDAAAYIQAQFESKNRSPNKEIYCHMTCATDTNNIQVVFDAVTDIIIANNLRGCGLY
HSV replic up: increases HSV replication in cells | HSV replication augmentation in cells, fold increase | maximum fold increase | 220,000 tested, 0.005% active;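 active = peak rise of 1.5-fold or more in the series; tested in PC3 cells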;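 note: first round at 10 µM; read as green reporter fluorescence; hits show the peak of a series up to 25 µM; 1 = signal of infected wells without compound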
Insulin prom inh cell count: also measured in Insulin prom inh; calls as there; normalized cell count, %; measured here: cell count, toxicity; reference of the scale not given here;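 cells exposed to compound for 48 h; stained nuclei by imaging scaled within each plate; lower means fewer cells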
HSV replic up primary fold: also measured in HSV replic up; calls as there; fold increase; compound at 10 µM; measured here: primary screen fold increase 10 uM; tested in PC3 cells;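 GFP signal in the first replicate; 1 = infected wells without compound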
Numbers without * were called inactive; i = inactive; / = no result given.

The opening seven entries, to show the layout:
SMILES | GALR2 agonist | PKD1 kinase inh | Insulin prom inh | Insulin prom inh cell count | RGS16-Gao | HSV replic up | HSV replic up primary fold
CCCN1C(=O)c2cc(C(=O)NCc3ccc(OC)cc3)ccc2C1O (centres undefined) | -1.7 | -10 | / | / | 96 | i | 0.93
Cc1cccc2cc(COC(=O)COc3ccccc3)c(=O)[nH]c12 | -0.6 | 6 | / | / | 94 | i | 0.89
COc1ccc(-c2cc(=O)c(C(=O)c3ccc(C)cc3)n[nH]2)cc1 | / | 4 | / | / | 100 | i | 0.97
COc1ccc(C(=O)Oc2cc(/C=N/NS(=O)(=O)c3ccccc3)ccc2OC)cc1 | 0.3 | -2 | 0 | 77 | 101 | i | 1.1
CCn1c(SCC(=O)NC(=O)NCc2ccco2)nc2sc(C)c(C)c2c1=O | 2.4 | -9 | -13 | 122 | 94 | / | /
CCOC(=O)C1(CCOc2ccccc2)CCN(Cc2cnc(C)[nH]2)CC1 | / | 4 | / | / | 102 | i | 1.1
O=C(Nc1cccc(-c2nnco2)c1)c1cccs1 | / | / | / | / | 74 | i | 1.2

The listing (from the top)
SMILES | GALR2 agonist | PKD1 kinase inh | Insulin prom inh | Insulin prom inh cell count | RGS16-Gao | HSV replic up | HSV replic up primary fold
CCCN1C(=O)c2cc(C(=O)NCc3ccc(OC)cc3)ccc2C1O (centres undefined) | -1.7 | -10 | / | / | 96 | i | 0.93
Cc1cccc2cc(COC(=O)COc3ccccc3)c(=O)[nH]c12 | -0.6 | 6 | / | / | 94 | i | 0.89
COc1ccc(-c2cc(=O)c(C(=O)c3ccc(C)cc3)n[nH]2)cc1 | / | 4 | / | / | 100 | i | 0.97
COc1ccc(C(=O)Oc2cc(/C=N/NS(=O)(=O)c3ccccc3)ccc2OC)cc1 | 0.3 | -2 | 0 | 77 | 101 | i | 1.1
CCn1c(SCC(=O)NC(=O)NCc2ccco2)nc2sc(C)c(C)c2c1=O | 2.4 | -9 | -13 | 122 | 94 | / | /
CCOC(=O)C1(CCOc2ccccc2)CCN(Cc2cnc(C)[nH]2)CC1 | / | 4 | / | / | 102 | i | 1.1
O=C(Nc1cccc(-c2nnco2)c1)c1cccs1 | / | / | / | / | 74 | i | 1.2
Cc1ccnc(N2CCN(c3c4c(c(C#N)c5nc6ccccc6n35)CCC4)CC2)c1 | 0.1 | 1 | 86* | 130* | / | / | /
O=C(OCC(=O)N1CCc2ccccc21)c1nc(Cl)ccc1Cl | / | 6 | / | / | 102 | i | 1.1
O=C(c1ccc2c(c1)OCO2)N(CC1CCCO1)C1(C(=O)NC2CCCC2)CCCCC1 (centres undefined) | -0.9 | 6 | / | / | 97 | i | 0.86
CCCC(=O)Nc1c(-c2cccs2)c(=O)c2ccccc2n1C | -1.4 | -6 | 62 | 118 | 105 | i | 0.86
CC(=O)NC(CC(=O)NCC(c1ccco1)N(C)C)c1ccccc1 (centres undefined) | -0.6 | 8 | -100 | 43 | / | i | 0.75
COc1cccc(N2CC(C(=O)Oc3ccc4ccccc4c3)CC2=O)c1 (centres undefined) | 0.4 | 8 | 17 | 154 | 100 | i | 0.83
CCNC(=O)NC(=O)C(C)Sc1nc2cc(C(=O)OC)ccc2c(=O)n1-c1ccccc1 (centres undefined) | 1.4 | -2 | -11 | 100 | 103 | i | 0.83
Cc1ccc(S(=O)(=O)N2CCCOC2CNC(=O)C(=O)NCc2ccco2)cc1 (centres undefined) | -1.1 | 6 | -100 | 59 | 114 | i | 0.93
Cc1cc(=O)[nH]c(N/N=C/c2ccc([N+](=O)[O-])cc2)n1 | / | 5 | / | / | 95 | i | 0.92
O=C(C1CCN(Cc2nc(Cc3cccc(F)c3)no2)CC1)N1CCOCC1 | / | 1 | / | / | 99 | i | 0.98
CC(=O)N1CCc2ccc(S(=O)(=O)N3CCc4ccccc43)cc21 | / | -11 | 18 | 93 | 100 | i | 0.94
CCc1cccc(CC)c1NC(=S)N1CCn2cccc2C1c1cccnc1 (centres undefined) | -1.0 | 4 | / | / | 132 | i | 1.1
COc1cccc(Sc2ccccc2/C=N/NC(N)=O)c1 | / | 2 | -28 | 7 | 49 | i | 0.89
COCCn1c(C)cc(C(=O)COc2cccnc2[N+](=O)[O-])c1C | / | -3 | 24 | 73 | 103 | i | 0.98
Cc1snnc1C(=O)NC(=S)Nc1ccccc1 | / | / | / | / | 107 | i | 0.92
COc1c(C)cc(C(=O)C2CCCN(C(=O)CCc3scnc3C)C2)cc1C (centres undefined) | / | 2 | / | / | 105 | i | 1.1
CCOC(=O)N1CCN(C(=O)CSc2nnc(-c3ccc(C)c(C)c3)o2)CC1 | -1.6 | 3 | / | / | 111 | i | 0.91
O=C(CCC(=O)OCc1cccc([N+](=O)[O-])c1)Nc1ccc(F)cc1 | / | -4 | -29 | 70 | 97 | i | 0.98
Cc1cc(C(=O)Nc2sc3c(c2C#N)CCC(C)C3)no1 (centres undefined) | 0.8 | -11 | -3 | 223 | 102 | i | 0.88
O=C(CNC(=O)c1ccco1)NCC(=O)OCc1cccc(Cl)c1 | -0.3 | -5 | 44 | 87 | 100 | i | 0.89
Cc1ccc(CN2CCSc3ccc(C(=O)NCc4cccnc4)cc32)cc1 | / | 8 | / | / | 93 | i | 0.91
N[C@@H](CO)c1nnc([C@H](Cc2ccc(O)cc2)NC(=O)C2CCNCC2)o1 | / | 0 | / | / | 132 | i | 1.1
O=C(CSc1nnc2ccccn12)Nc1cccc(S(=O)(=O)N2CCOCC2)c1 | -0.1 | 5 | 15 | 130 | 110 | i | 0.98
CCOC(=O)CSc1nc2ccsc2c(=O)[nH]1 | / | -1 | / | / | 103 | i | 1
COc1cc2c(c(OC)c1OC)-c1c(cc(OC)c(OC)c1OC)C[C@](C)(O)[C@@H](C)C2 | / | / | / | / | 101 | i | 0.96
O=C(COC(=O)CCN1C(=O)c2ccccc2C1=O)Nc1ccc(S(=O)(=O)N2CCCC2)cc1 | -1.5 | -9 | / | / | 98 | i | 0.9
Nc1ccn(-c2ccc(Cl)cc2)c(=O)c1 | -0.4 | 5 | / | / | 84 | i | 0.94
O=C(Nc1ccc(F)cc1)c1ccccc1S(=O)(=O)c1ccccc1[N+](=O)[O-] | -0.5 | 4 | 24 | 90 | 113 | i | 1.1
CCCCCn1c(=O)[nH]c2cc(C(=O)NCCCN(CC)CC)ccc2c1=O | -2.4 | -12 | / | / | 107 | i | 0.76
O=C1NCC(O)=C1C=NCCCO | -0.6 | 8 | / | / | 103 | / | /
CCCCOP(=O)(OCCCC)C(O)c1ccc(N(C)C)cc1 (centres undefined) | / | / | / | / | 104 | i | 1
CC(C)CC(=O)NC(=S)Nc1ccc(N2CCCC2)c(Cl)c1 | / | / | / | / | 92 | i | 1
COc1ccc(S(=O)(=O)n2cnc3cc(C)c(C)cc32)cc1 | -0.7 | 2 | / | / | 104 | i | 0.86
COc1ccc(C2/C=C\CN(C(=O)OCc3ccccc3)CC(=O)N2Cc2ccc(F)cc2)cc1 (centres undefined) | / | / | / | / | 102 | i | 0.78
COc1ccc(-c2c(NC(C)=O)n(C)c3ccccc3c2=O)cc1 | 0.0 | -1 | 43 | 98 | 101 | i | 1
COc1cc2[nH]c(=S)n(Cc3cccs3)c(=O)c2cc1OC | / | -10 | / | / | 99 | i | 0.82
COCCCNC(=S)N/N=C/c1ccc(N(C)C)cc1Cl | / | / | / | / | 101 | i | 0.99
CCOc1ccccc1C(=O)Nc1ccc(S(=O)(=O)N2CCOCC2)cc1 | 0.2 | -2 | -14 | 111 | 101 | i | 0.9
COc1ccc(NC2=CC(=S)NC(C)(C)C2)cc1 | / | / | / | / | 113 | i | 1.2
CCn1c(=O)cc(O)c2ccccc21 | -0.5 | -13 | / | / | 72 | i | 0.92
COc1ccc(C(=O)NCC(=O)N2CCc3ccccc3C2)cc1 | / | 0 | / | / | 102 | i | 0.93
C/C(=N\N1CCN(C2c3ccccc3-c3ccccc32)CC1)c1ccncc1 | -1.5 | 9 | 14 | 121 | 100 | i | 0.99
Cc1cc(C)nc(NS(=O)(=O)c2ccc(NC(=O)c3cc(-c4ccccc4)nc4ccccc34)cc2)n1 | -2.1 | -5 | 64 | 100 | 104 | i | 1
Cn1cc(/C=C2\SC(=O)N(c3ccccc3)C2=O)c2ccccc21 | -0.9 | -1 | / | / | 104 | i | 1.1
CC1(C)CC(NC(=O)COc2ccccc2Cl)CC(C)(C)N1 | / | -3 | -25 | 99 | 107 | i | 1.1
CC(NCC(O)COCc1ccc(Cl)cc1)c1ccccc1 (centres undefined) | / | -12 | -89 | 105 | 104 | i | 0.79
CC(Oc1cccc(Cl)c1)C(=O)Nc1cc(=O)n(C)c(=O)n1C (centres undefined) | -0.9 | -3 | -26 | 88 | 72 | i | 0.78
Nc1nnc(-c2ccc(Cl)c([N+](=O)[O-])c2)s1 | / | 0 | / | / | 99 | i | 0.99
CCOc1ccc(C(=S)NC2CCCCC2)cc1 | -2.8 | -2 | -33 | 114 | 102 | i | 1.1
COc1cc(/C=N/NC(=O)c2ccc(CSc3nc4ccccc4[nH]3)cc2)cc(OC)c1OC | -0.6 | 1 | -150 | 70 | 98 | i | 0.76
S=C(NCC1COc2ccccc2O1)Nc1ccccc1 (centres undefined) | / | -4 | -26 | 111 | 103 | i | 1.1
CCOc1cccc(C2NC(=S)NC(C)=C2C(=O)Nc2ccccc2)c1 (centres undefined) | -0.2 | -4 | / | / | 101 | i | 1
COc1cc(/C=C\C(=O)NCc2ccc3[nH]c(C)cc3c2)cc(OC)c1OC | -1.7 | -5 | 66* | 115* | 103 | i | 0.8
The results go on:
SMILES | GALR2 agonist | PKD1 kinase inh | Insulin prom inh | Insulin prom inh cell count | RGS16-Gao | HSV replic up | HSV replic up primary fold
CCCCCCc1c(O)nc(SCCN(C)C)[nH]c1=O | / | / | / | / | 100 | i | 1.1
CC(=O)c1cccc(NC(=O)/C(=C\c2ccco2)NC(=O)c2cccs2)c1 | -3.5 | 4 | 7 | 90 | 100 | i | 1
NS(=O)(=O)c1ccc(NC(=O)CSc2ccc3ccccc3n2)cc1 | -1.8 | 1 | 26 | 70 | 103 | i | 0.98
O=C(O)CCn1c(SCc2cccc3ccccc23)nc2ccccc21 | -3.1 | -7 | / | / | 104 | i | 0.68
COc1ccc(/C=N/NC(=O)c2cnccn2)cc1O | -0.9 | -8 | / | / | 104 | i | 0.92
CN(C(=O)CSc1nnc(-c2ccncc2)n1C)C1CCS(=O)(=O)C1 (centres undefined) | -3.0 | 0 | 9 | 175 | 98 | i | 1
COc1ccc(N=C2SC(CC(=O)Nc3ccccc3)C(=O)N2Cc2ccccn2)cc1 (centres undefined) | / | -5 | / | / | 100 | i | 0.98
CCOC(=O)c1ccc(NC(=O)N2CCN(C(=O)c3ccco3)CC2)cc1 | / | -1 | / | / | 100 | i | 0.97
COc1ccc(CNC(=O)C2(C)Cc3ccccc3C(=O)O2)cc1 (centres undefined) | / | -3 | -35 | 84 | 99 | i | 1.1
CCC(=O)NC(=S)Nc1ccc(N2CCOCC2)cc1 | / | -1 | / | / | 99 | i | 1
CCOc1ccc(NC(=O)c2ccc(NC(=O)c3ccc(CN4CCOCC4)cc3)cc2)cc1 | / | / | / | / | 86 | i | 1
c1ccc(CCN2CN=C(Nc3nc4ccccc4o3)NC2)cc1 | -1.0 | -1 | 64 | 121 | 100 | i | 0.93
COC(=O)c1c(NC(=O)c2c(Cl)cnn2C)sc(C)c1C | / | -8 | / | / | 92 | i | 0.85
OCCN(Cc1nc(-c2ccc3c(c2)OCO3)no1)Cc1cccs1 | / | -1 | / | / | 95 | i | 1.1
CCOC(=O)Cc1csc(SCC(=O)Nc2cc(C)ccc2OC)n1 | / | 0 | -6 | 109 | 96 | i | 1.2
Cc1ccc(C(=O)CSc2nnc3ccccn23)c(C)c1 | / | -5 | / | / | 101 | i | 1
COc1cc(C(=O)NCC(=O)OCn2nnc3ccccc3c2=O)cc(OC)c1OC | / | 2 | / | / | 104 | i | 0.94
COCCN(C(=O)Cc1cccs1)C(C(=O)NCc1ccc(OC)cc1)c1ccc(OC)cc1 (centres undefined) | -1.7 | -5 | / | / | 106 | i | 1.1
COc1cccc(/C=C(/C(=O)OCC(=O)NC2CCCC(C)C2C)c2ccccc2)c1 (centres undefined) | 0.0 | -15 | -5 | 85 | 104 | i | 1.1
C=CCSc1nnc2c(n1)OC=Nc1ccccc1-2 | 0.5 | -3 | -38 | 80 | 108 | i | 1
Cc1c(NC(=O)COC(=O)Cc2ccc(Cl)cc2)c(=O)n(-c2ccccc2)n1C | -0.5 | -7 | / | / | 104 | / | /
O=C(O)CCC(=O)OC1CC2CCC1C2 (centres undefined) | 0.5 | 1 | / | / | 75 | i | 0.86

Random draw from the library, and some 1.3% of all compounds hit somewhere here.
